# Screening data: PubChem, several laboratories
# Calb FLC: C. albicans growth modulation with fluconazole. growth inhibition, % (test concentration not listed). C. albicans CaCi-2 (fluconazole-resistant clinical isolate) + fluconazole, Alamar Blue growth, 48 h. hit rate 0.57% among 300,000;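 active = most replicates above 75%; inconclusive = exactly half above 75%; inactive = most below 75%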;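 also: all wells also contain fluconazole at 8 µg/ml as a sub-toxic cotreatment; 0% = median of DMSO wells and 100% = median of geldanamycin control wells; wells of about 8 µL received 7.5 nL stock; the first replicate is given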
# RanGTP-Impb inh: inhibitors of RanGTP-importin-beta interaction, primary screen, biochemical, FRET, CFP-Ran, YFP-importin-beta, homogeneous; cell-free CFP-Ran/YFP-importin-beta FRET ratio; inhibition, % (no concentration beside the values); hit rate 1.1% among 300,000; AID 2216;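 active = most replicates above 15%; inconclusive = exactly half above 15%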;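 also: 0% = DMSO wells and 100% = Ran loaded with GDP instead of GTP; wells of about 40 µL received 100 nL stock; the first replicate is given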
# T cruzi repl: T. cruzi replication inhibition; T. cruzi beta-gal in NIH3T3, luminescence, 90 h; inhibition, % (test concentration not listed); hit rate 1.4% among 300,000; AID 1885;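 active = mean inhibition across valid replicates above about 55%, limit read from the data; inconclusive = mean below that limit but half or more replicates reach it; inactive = mean below it, under half of replicates reach it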;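 also: signal also drops with host cell toxicity which is not excluded here; 0% = plate median of DMSO wells and 100% = zero luminescence signal; higher percent means less beta-gal luminescence so fewer parasites; stock transfer was 50 nL into about 50 µL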
# A1 inh: inhibitors of the anti-apoptotic protein A1, read as caspase activation. MEF A1-2A-BIM cells, Caspase-Glo 3/7 luminescence, 3 h; percent of clofoctol response, vehicle zero. caspase activation, % (no concentration beside the values). hit rate 0.066% among 330,000. AID 2462;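 active = over half of replicate activation scores above 10%, or exactly half above 10 with the replicate mean above 10; inconclusive = replicate mean below 10 yet half the replicates above 10; inactive = over half of replicates below 10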;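 also: wells of about 30 µL received 50 nL stock; many hits fall short of the cut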
# Beta apoptosis: beta cell apoptosis inhibition. hit rate 0.8% among 300,000. INS-1E cytokine-induced death, ATP luminescence, 48 h; percent of positive-control rescue, neutral wells zero. protection from apoptosis, % (concentration not given with the values). AID 435005;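 active = all replicates at 75% or more, or half of them and the mean; inconclusive = half reach 75% but not the mean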;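 also: 0% = cytokine-treated negative control wells and 100% = positive control rescue; higher means more ATP so stronger rescue from cytokine killing; wells of about 40 µL received 100 nL stock; the first replicate is given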
# UCH37 DUB inh: blocks the human deubiquitinase UCH37. Q9Y5K5. purified proteasome/UCH37, Ub-AMC cleavage fluorescence. inhibition, % (no concentration beside the values). hit rate 0.33% among 330,000. AID 588478;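 active = mean of two replicates above 20%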;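 also: 0% = compound-free wells with enzyme and 100% = wells lacking proteasome; stock transfer was 100 nL into about 20 µL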
# Target sequence (Q9Y5K5 whole entry, looked up): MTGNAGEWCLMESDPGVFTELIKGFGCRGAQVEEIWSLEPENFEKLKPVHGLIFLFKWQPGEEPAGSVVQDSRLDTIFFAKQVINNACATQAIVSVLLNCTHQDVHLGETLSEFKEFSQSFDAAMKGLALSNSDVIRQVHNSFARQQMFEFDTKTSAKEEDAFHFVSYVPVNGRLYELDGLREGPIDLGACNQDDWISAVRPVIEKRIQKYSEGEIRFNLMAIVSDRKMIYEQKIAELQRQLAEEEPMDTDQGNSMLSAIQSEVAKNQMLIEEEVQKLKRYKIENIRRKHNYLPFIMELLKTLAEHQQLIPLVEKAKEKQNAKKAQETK
#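 Material: Human UCH37 enzyme supplied as purified proteasome complex | Schedule: 30 min compound-proteasome preincubation then 25 min substrate reaction, room temperature | Detection: AMC fluorescence from Ub-AMC cleavage, excitation 355 nm, emission 460 nm | Benchmarks: Wells without proteasome as full block, compound-free enzyme plus substrate as uninhibited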
# Beta2AR agonist: activates human beta-2 adrenergic receptor causing internalization; AID 504454; Am2.2-beta2AR cells, FAP receptor internalization, flow cytometry; reference of the scale not given here; response, % (test concentration not listed); hit rate 0.43% among 340,000; P07550;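 active = response above a set limit, near 3 SD of response in nonfluorescent compounds, cut at about 42% in these data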;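 also: stock transfer was 100 nL into about 11 µL; a reference agonist was the positive control; negative values mostly stem from fluorescent compounds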
# Target sequence (P07550 whole entry, looked up): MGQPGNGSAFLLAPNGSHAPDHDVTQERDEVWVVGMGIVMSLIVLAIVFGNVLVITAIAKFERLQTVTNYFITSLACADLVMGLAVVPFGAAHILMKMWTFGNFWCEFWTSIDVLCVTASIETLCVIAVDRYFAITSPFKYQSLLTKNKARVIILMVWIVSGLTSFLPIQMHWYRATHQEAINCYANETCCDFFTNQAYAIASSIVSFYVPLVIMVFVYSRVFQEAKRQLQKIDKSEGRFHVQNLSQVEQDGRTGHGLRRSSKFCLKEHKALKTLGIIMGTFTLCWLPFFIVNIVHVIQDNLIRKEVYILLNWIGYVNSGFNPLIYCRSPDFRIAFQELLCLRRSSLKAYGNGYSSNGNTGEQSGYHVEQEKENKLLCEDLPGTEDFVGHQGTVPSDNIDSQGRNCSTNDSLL
# LANA-H2B inh: blocks KSHV LANA binding to histone H2A/H2B; Q9QR71; cell-free LANA-H2A/H2B peptide, fluorescence polarization; inhibition, % (concentration not given with the values); hit rate 0.6% among 320,000; in the data active = inhibition mostly above about 10%, no sharp cut-off; inactive = mostly below about 6.7%;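 also: stock transfer was 7.5 nL into about 10 µL; 0% = median of vehicle wells and 100% = median of positive control wells; one replicate is shown; the record names a cut of 25% in any replicate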
# The depositor's hits bear a star; ? = inconclusive; . = no result given.
SMILES,Calb FLC,RanGTP-Impb inh,T cruzi repl,A1 inh,Beta apoptosis,UCH37 DUB inh,Beta2AR agonist,LANA-H2B inh
Cc1nn(C(C)C(=O)NC2CCC(C)CC2)c(=O)c2nn(-c3ccccc3)c(C)c12 (stereo not given),0,-0.5,-21,1.0,-1,.,4,8.5
CC(=O)c1c(C)oc2ccc(N(C(=O)c3ccncc3)S(=O)(=O)c3ccccc3)cc12,13,-3.0,7,-0.4,-16,0.2,5,4.0
C=CCNC(=O)C(=O)N/N=C/c1ccco1,3,1.8,9,-0.1,-7,.,28,1.3
O=[N+]([O-])c1cccnc1Sc1ccc(Br)cc1,-15,0.6,-11,0.8,.,2.3,0,3.5
COC(=O)c1ccc(-c2ccco2)n1Cc1nc(-c2ccc(OC)c(OC)c2)oc1C,-1,-3.5,50,0.3,1,4.4,2,-4.1
O=C(Nc1cccc(C(F)(F)F)c1)OCCN1CCN(Cc2ccccc2)CCC1=O,7,2.2,-1,0.4,10,2.6,-4,3.1
CCn1cc(C(=O)NCCCOC(C)C)c(=O)c2cc(S(=O)(=O)N3CCCC3)ccc21,-6,5.4,-5,0.8,8,2.3,1,-2.3
O=C(CN1CCN(C(=O)c2ccco2)CC1)Nc1cccc([N+](=O)[O-])c1,-2,2.3,9,-0.8,10,5.9,3,1.9
O=C1c2ccc3c4c(ccc(c24)C(=O)N1c1ccc(O)cc1)C(=O)N(c1ccc(O)cc1)C3=O,-5,3.2,-39,0.3,68,3.2,-13,4.8
Cc1cc(NC(=O)NC(=O)c2ccc(F)cc2F)n[nH]1,-2,2.7,-5,-1.9,-5,2.3,-4,-3.3
CCN(CC)c1ccc(-c2nnc(SCC(=O)Nc3ccccc3C#N)n2-c2ccccc2)cc1,-4,9.3,42,-0.1,-6,3.9,-8,6.0
Cc1ccc(C)c2c1cc(C)c1nnc(SCc3ccccn3)n12,25,-1.4,-4,1.0,-9,1.2,-15,4.7
Cc1ccc(C)c(N2CCN(C(=O)c3ccc(CS(=O)Cc4cccc(Cl)c4)o3)CC2)c1 (stereo not given),0,-0.8,-2,0.9,-1,0.6,6,-2.9
Cc1ccc(-c2n[nH]c(S(C)(=O)=O)c2C#N)cc1,-2,-0.5,-5,-0.8,1,1.4,5,-1.0
COc1cccc(-n2c(CN3CCN(c4ccccn4)CC3)nc3ccc([N+](=O)[O-])cc3c2=O)c1,23,0.4,-10,-0.4,0,3.0,-21,-0.8
CCOC(=O)c1cccc(NC(=O)CN2C(=O)C3CC=CCC3C2=O)c1 (stereo not given),-3,3.3,1,0.3,-4,0.3,8,-3.5
CCC(=O)Nc1nnc(/C=C/c2ccccc2)s1,-9,?,0,0.7,0,-6.3,-9,-3.2
COc1ccc([N+](=O)[O-])cc1N(CC(O)CN(C)C)S(=O)(=O)c1ccccc1 (stereo not given),?,-3.3,-3,0.4,-3,6.2,0,-2.4
CC(Cc1cccs1)NC(=O)Nc1ccc(Cl)c(Cl)c1 (stereo not given),-33,1.9,21,-0.4,2,2.0,2,-2.1
Cn1cnc(S(=O)(=O)Nc2ccccc2C(=O)NCC2CC2)c1,-3,-0.4,-3,0.2,.,-15,-3,1.7
Cc1ccc(S(=O)(=O)Nc2cc(NC(=O)CN3CCOCC3)ccc2Cl)cc1,-10,-0.7,-11,0.5,6,3.1,6,1.5
Cc1ccccc1CNC(=O)CN1C(=O)c2ccccc2S1(=O)=O,-1,-2.3,0,0.2,-2,1.9,-5,-1.7
CC1=C(C(=O)Nc2cccc(C(=O)NC3CCCCC3C)c2)SCCO1 (stereo not given),-4,-0.6,11,?,-2,-0.3,6,-1.7
CC(C)(C)NC(=O)NC(=O)COC(=O)Cc1ccc(Cl)cc1Cl,-20,0.7,-6,-0.7,-4,-0.7,-2,.
CCCCCOc1ccc(N2C(=O)C(C)CNC2=S)cc1 (stereo not given),-3,1.2,0,0.5,-6,6.1,.,2.5

# The list goes on; the last 2 above are carried over.
SMILES,Calb FLC,RanGTP-Impb inh,T cruzi repl,A1 inh,Beta apoptosis,UCH37 DUB inh,Beta2AR agonist,LANA-H2B inh
CC(C)(C)NC(=O)NC(=O)COC(=O)Cc1ccc(Cl)cc1Cl,-20,0.7,-6,-0.7,-4,-0.7,-2,.
CCCCCOc1ccc(N2C(=O)C(C)CNC2=S)cc1 (stereo not given),-3,1.2,0,0.5,-6,6.1,.,2.5
C=CCN1C(=O)C2(c3ccccc31)C1CCCC=C1C(C#N)=C(N)C2(C#N)C#N (stereo not given),35,-2.0,-6,0.6,-1,4.7,-2,-4.5
O=C(NC(CCl)c1ccccc1)c1ccc(Cl)cc1 (stereo not given),-8,-6.9,-1,0.6,-1,-0.2,-6,1.3
CN(CC(=O)Nc1ccc(F)cc1)C(=O)c1cn(-c2ccccc2)nc1-c1cccs1,.,.,.,-0.3,-1,1.4,3,-21
O=C(CSc1nc(-c2ccccc2)cs1)NCc1ccco1,-2,-3.3,2,0.8,0,2.1,1,-1.6
O=C1CC2(CCN(C(=O)c3ccccc3Cl)CC2)Oc2ccccc21,-11,-3.2,-2,0.8,-1,-41,-2,-2.4
O=C(Nc1cccc2c1CCCC2)c1ccncc1,1,-0.8,-11,0.7,-10,2.1,-1,2.2
NC(=O)c1c(N)sc2c1CCCCC2,16,3.5,-7,-0.6,-3,-6.2,-2,-3.1
CCN(CC)S(=O)(=O)c1cccc(C(=O)NCC(=O)OCC(=O)NCc2ccccc2)c1,-1,0.9,-12,1.2,-2,-1.6,0,0.2
CCCNC(=S)NC1CC2CCCC(C1)N2CC(C)C (stereo not given),-2,7.9,-24,0.4,-2,3.3,1,-1.7
CCOc1ccc(NC(=O)CCNc2c(N3CCCC3)c(=O)c2=O)cc1,-9,-1.7,-12,0.2,-6,4.6,1,-7.0
O=C(Nn1c(-c2ccncc2)nc2ccccc2c1=O)c1ccc([N+](=O)[O-])cc1Cl,-17,-3.2,2,0.3,.,3.3,2,4.8
Cc1ccc(SCCc2ccc(C)nc2)cc1,-18,0.5,2,-0.7,-6,8.0,-1,7.9
COCCC1CCCCN1C(=O)c1ccc(OC2CCN(C(C)=O)CC2)c(OC)c1 (stereo not given),5,4.1,-21,.,.,-0.4,-3,.
Cc1cccc(-n2ncc3c(NC(C)C)ncnc32)c1,-6,-0.3,-13,-2.2,1,1.1,6,-3.7
CCOC1(OCC)N=C(N)C2(C#N)C(c3cccc(OC)c3OC)C12C#N (stereo not given),-3,-2.1,-2,0.2,-1,0.3,-3,-3.0
COc1ccc(NC(=O)CSc2ccc(-c3sc(C)nc3C)nn2)cc1,-3,-0.9,10,0.4,4,2.8,0,4.1
Cc1ccc2c(Cl)cc(Cl)c(OCC(=O)N3CCOCC3)c2n1,.,.,.,0.2,-4,-2.2,-1,.
Cc1cc(C(=O)NCc2nc(-c3ccccc3)no2)ccc1[N+](=O)[O-],-19,-0.4,-8,0.3,-3,2.2,-18,-5.9
CC(C)=CCN1CCN(Cc2c(C)nn(C)c2Cl)CC1CCO (stereo not given),6,4.7,-1,-1.9,2,-0.7,3,2.7
Cc1ccc(SC2=C(C(=O)O)CCCC2)cc1,8,1.0,-4,0.4,-12,1.2,9,-2.2
CCOc1ccc2[nH]c(=O)c(CN(Cc3ccccc3)C(=O)N3CCCC3)cc2c1,3,0.1,-3,-1.2,40,-23,-17,4.3
Cc1ccccc1OCCOC(=O)c1cc(S(=O)(=O)N2CCCCC2)ccc1N1CCOCC1,.,.,.,-0.2,55,3.6,3,1.2
C=CCC1(O)C(=O)N2C(=C1C(=O)N1CCOCC1)c1ccccc1CC2(C)C (stereo not given),-7,8.8,0,0.0,-1,-1.2,-3,4.7
Cc1ccc(-n2c(C)nnc2SCC(=O)NNC(=O)c2ccco2)cc1,-4,-3.8,-11,-0.2,-3,2.4,0,-7.8
N#C/C(=C(/O)Cc1ccccc1)P(=O)(c1ccccc1)c1ccccc1,4,?,-6,1.2,-4,6.2,-5,-3.8
SMILES,Calb FLC,RanGTP-Impb inh,T cruzi repl,A1 inh,Beta apoptosis,UCH37 DUB inh,Beta2AR agonist,LANA-H2B inh
COc1ccccc1NC(=O)C1=C(C)Nc2ncnn2C1c1ccc(C)o1 (stereo not given),.,1.7,5,0.0,-2,0.5,-8,0.2
C=CCn1c(CCNC(=O)c2ccccc2F)nnc1SCC(=O)Nc1nc2ccccc2s1,29,-0.2,5,0.5,4,2.1,-7,0.5
CN(C)c1cc[n+](CC(=O)Nc2ccc([N+](=O)[O-])cc2Cl)cc1,12,-8.4,-6,0.0,9,3.9,-2,1.2
O=C(N/N=C/c1ccncc1)c1cccc(N/N=C/c2ccncc2)c1,-2,3.6,-5,-0.1,5,.,6,5.7
O=C1CCCN2N=C(SCC(=O)Nc3cccc(F)c3)SC2=N1,-5,1.0,-5,-0.9,-5,-1.7,-16,0.0
O=C(NCCOc1ccccc1)c1ccc2c(c1)OCO2,-1,?,0,-6.3,4,3.7,1,8.6
CCNC(=O)C(=O)c1c(-c2ccccc2)[nH]c2ccccc12,11,1.4,6,1.4,5,9.9,2,-0.1
COc1cccc(NC(=O)CN(C)C(=O)c2cc3c(s2)CCC(C)C3)c1 (stereo not given),-13,.,-6,0.4,3,2.1,2,-3.9
COc1ccc2cc(-c3csc(-c4cccnc4)n3)ccc2c1,-14,0.6,-25,-4.3,0,0.3,0,-7.3
Cc1c(C)n(C(=O)CSc2nncn2C)c2ccccc12,7,7.3,-4,-0.2,-1,3.1,-1,-1.4
Cc1cccc(OCC(=O)Nc2nonc2NC(=O)COc2cccc(C)c2)c1,25,-9.9,-14,-1.2,-2,1.1,-1,2.7
COc1ccc(-c2nnco2)cc1OC,-1,2.8,-6,-1.7,-13,1.3,3,0.7
Cc1[nH]c2ccccc2c1/C=N/NC(=O)c1cc(-c2cccs2)[nH]n1,1,.,-63,-0.1,-9,.,33,2.4
CN(C)CCn1nnc2c(=O)oc3ccccc3c21,.,.,-26,-0.3,-6,2.7,-7,-6.5
CC(=O)N=c1sc2c3ccccc3ccc2n1C,2,-5.1,66*,0.7,0,1.7,1,-2.4
CCc1nc2ccc(C(=O)N3CCN(CC)CC3)cc2nc1CC,-3,2.9,-6,-0.1,-5,2.0,1,4.2
Clc1ccc(Cl)c(-c2nc(-c3ccncc3)no2)c1,-6,0.8,5,-0.3,.,1.9,-15,-2.5
Cc1nc2c(C)cccc2cc1C(=O)N/N=C/c1ccc(C(=O)O)cc1,-2,0.0,-4,1.0,-7,.,-1,1.4
O=C(CCC1CCCC1)N1CCN(C(=O)c2ccco2)CC1,-2,4.5,-3,0.3,-7,3.5,-4,0.8
O=C(O)c1ccc2c(c1)nnn2C1CCCCC1,9,0.4,-17,-1.5,-1,-2.3,-5,-5.8
Cc1cc(C)cc(NC(=S)NCCCN2CCOCC2)c1,-13,.,1,0.0,-4,4.4,2,-0.9
O=S(=O)(NCc1ccc2c(c1)OCO2)c1c(F)cc(F)cc1Br,-9,0.7,17,0.0,-3,-0.1,-4,1.7
CCN(CC(=O)Nc1ccc2c(c1)OCCO2)CC(=O)Nc1cc(C)on1,2,9.6,-5,-0.2,-3,2.9,1,0.1
